High-throughput results (PubChem BioAssay)
MgrA DNA FP: alters Staphylococcus aureus MgrA binding to DNA. fluorescence polarization. AID 602314. hit rate 0.13% among 84,000. inhibition, %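 (about 10 µg/mL by stock and volumes)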;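 active = above 50% in either of two replicates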;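 note: 0% = protein plus DNA without compound and 100% = DNA alone without protein; higher means less MgrA bound to DNA so lower polarization; one replicate is shown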
S aureus helic: blocks Staphylococcus aureus DNA helicase | purified S. aureus helicase, fluorescence unwinding assay; about half of the hits fall short of the stated cut | inhibition, %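 (tested at about 80 µM)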 | hit rate 0.05% among 120,000 | AID 485395;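 active = both duplicates at 50% or more, or one of them with a favoured structure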;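 note: 0% = mean of negative control wells and 100% = mean of positive control wells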
* marks the source's active call; other numbers are inactive results; . = no result given; & = joins results of further samples. This is a subset; rates above refer to the full screens.

# | MgrA DNA FP | S aureus helic | mol
1 | -0.7 | 5 | COC(=O)C(C)(C)NC(=O)c1cccs1
2 | 0.6 | . | O=C(CC1OC(=O)c2ccccc21)c1ccc2ccccc2c1 (stereo unspecified)
3 | -0.7 | 1 | CCCNC(=O)N(C)c1nncnc1C(=O)NC
4 | -1.4 | . | Cc1cccc(C)c1N1C(=O)CC(N2CCSCC2)C1=O (stereo unspecified)
5 | . | 9 | Nc1c(C(=O)CCC(=O)O)oc2ccc(Br)cc12
6 | 0.9 | 6 | CCCNC(=O)c1ccc(CS(=O)c2ccc(Br)cc2)o1 (stereo unspecified)
7 | . | 2 | COc1cccc(OCCNC(=O)Cc2cccc3ccccc23)c1
8 | 4.0 | 4 | CCc1ccc(C=NN2CCN(Cc3ccccc3)CC2)cc1
9 | . | -25 | COc1cccc(N2C(N)=NC(N)=NC2(C)C)c1
10 | -0.2 | . | COc1cc2c(cc1OC)C(C)N(S(=O)(=O)c1ccccc1)CC2 (stereo unspecified)
11 | -0.2 | . | O=C(OCc1cccc(COC(=O)c2ccccc2)c1F)c1ccccc1
12 | . | -9 | CC1=C(C(=O)Nc2cc(-c3cccc(F)c3)[nH]n2)C2(CCCCC2)OC1=O
13 | 1.2 | . | Cc1ccc(S(=O)(=O)Nc2ccc(F)cc2NS(=O)(=O)c2ccc(C)cc2)cc1
14 | . | 34 | COc1ccc(C(=O)c2cc3c(CO)cnc(C)c3oc2=O)cc1
15 | -0.8 | . | CCOC(=O)C1CCN(Cc2csc(-c3cccs3)n2)CC1
16 | . | -8 | CCOC(=O)C1=C(C)N(CCOC)C(=O)/C1=C\c1ccc(N(C)C)cc1
17 | -0.2 | . | O=S(=O)(NCc1ccc2c(c1)OCO2)c1cc(Cl)sc1Cl
18 | 1.5 | 3 | O=C(COC(=O)c1cccs1)NCc1cccs1
19 | . | -10 | O=C(Nc1ccccc1Cc1ccccc1)c1ccc(Br)o1
20 | . | 2 | O=C(CSc1ncn[nH]1)Nc1ccc(OCc2ccccc2)cc1
21 | 2.5 | 6 | Oc1ccccc1C1=Nc2ccccc2N=C(c2ccc(Cl)cc2)C1
22 | . | -2 | CC(C(=O)Nc1ccc2c(c1)OCO2)N(C)CC(=O)Nc1ccccc1Cl (stereo unspecified)
23 | -0.6 | 4 | COC(CNS(=O)(=O)c1ccc(S(=O)(=O)NC2CC2)cc1)OC
24 | . | 5 | Cn1c(=O)c2c(SCC(=O)Nc3ccccc3C(F)(F)F)ccnc2n(C)c1=O
25 | -1.5 | . | COC(=O)c1ccncc1C(=O)O
26 | . | -7 | Cn1c2c(c(=O)n(C)c1=O)C(c1ccc(Cl)cc1)C(C#N)=C(N)O2 (stereo unspecified)
27 | -1.7 | . | CCOc1ccc2cc(Br)ccc2c1
28 | 6.2 | . | OC(CCCN1CCCCC1)(c1ccccc1)c1ccccc1
29 | . | -7 | Cc1cccc(C)c1NC(=O)CN(C)C(C)C(=O)N1c2ccccc2CC1C (stereo unspecified)
30 | . | -18 | COc1ccc(C(=O)Nc2nc(-c3ccc(C)cc3)cs2)c(OC)c1
31 | . | 30 | COc1ccc(-n2c(N)c(C(=O)NCCN3CCOCC3)c3nc4ccccc4nc32)cc1OC
32 | -2.5 | 14 | Cc1sc2nc(N)c(C#N)c(C)c2c1C
33 | . | 3 | O=c1c(-c2ccc3c(c2)OCCO3)coc2cc(O)ccc12
34 | -2.7 | . | Cc1[nH]n(C)c(=O)c1C(=O)c1c(-c2c(Cl)cccc2Cl)noc1C
35 | . | -6 | CCN(CC)S(=O)(=O)c1ccc2c(c1)nc(CCC(=O)OCC#N)n2C
36 | . | -2 | Cc1ccc(C)c(-n2c(=O)c3ccccc3n3c(SC(C)C(N)=O)nnc23)c1 (stereo unspecified)
37 | 1.9 | -8 | CCn1c(SCC(=O)c2ccc(Br)cc2)nnc1-c1ccncc1
38 | -14 | . | CCOC(=O)c1c(C)n(-c2ccccc2)c2c1cc(OC(=O)c1cc(C)cc(C)c1)c1ccccc12
39 | . | 2 | COC(=O)c1cc2oc3ccccc3c2n1CC(=O)Nc1ccc(F)cc1F
40 | 0.9 | 8 | CCc1cccc(C)c1Nc1c(-c2ccccc2O)nc2ncccn12
41 | -0.2 | . | c1ccc(-n2ncnc2-c2csc(-c3ccncc3)n2)cc1
42 | . | -5 | CN(C)S(=O)(=O)c1ccc(NC(=O)CSc2ncccn2)cc1
43 | 1.3 | . | OC(COc1ccc(Br)cc1)CN1CCCN(c2nc3ccc(Cl)cc3s2)CC1 (stereo unspecified)
44 | -1.3 | 8 | CCN(CC)c1ccc(C(=O)OCC(=O)N2CCc3ccccc32)cc1
45 | -1.7 | 3 | Cc1cccc(N(C)S(=O)(=O)c2ccc3c(c2)OCC(=O)N3)c1
46 | -2.0 | -23 | O=C1CSC(=NCc2ccccc2)N1
47 | -1.1 | 16 | Cc1cccc(NC(=O)c2ccc(=O)[nH]c2)c1
48 | 1.8 | 4 | NC1=NC(=O)C(CC(=O)Nc2ccccc2)S1 (stereo unspecified)
49 | . | 15 | Clc1ccc(Cn2cccc2C2=NCCO2)cc1
50 | 0.0 | 9 | CC1CCC(C(C)C)C(OCC[N+](C)(C)C)C1 (stereo unspecified)
51 | . | -3 | CC1CCCN(C(=S)NC(=O)C2CC2)C1 (stereo unspecified)
52 | . | -1 | CCOC(=O)CSCc1cn2c(C)cc(C)nc2n1
53 | . | -6 | COc1ccc(CN(C)Cn2c(=S)oc3ccccc32)cc1
54 | . | 27 | O=C(O)/C=N/NC(=O)c1ccccc1
55 | 1.0 | -15 | CN(C)N=Nc1ccc(S(=O)(=O)NC(=O)Cc2ccccc2)cc1
56 | . | 2 | O=C(CCNC(=O)c1ccc(Br)cc1)Nc1nc2ccccc2[nH]1
57 | -0.8 | -4 | CCN(CC)CCCNc1nc(Cl)nc(Nc2ccc(F)cc2F)n1
58 | . | 9 | CC(C)n1c(=S)[nH]c2scc(-c3cccs3)c2c1=O
59 | 1.4 | 15 | O=C1NC(=Nc2ccccc2Br)SC1(CO)CO
60 | -0.2 | . | C/S(=N\C(=O)Nc1ccc(Cl)cc1)c1sc(Cl)c2c1C(=O)CCC2 (stereo unspecified)

Further structures:
# | MgrA DNA FP | S aureus helic | mol
61 | -0.6 | 7 | O=C(CSc1nc2c([nH]c3ccccc32)c(=O)n1-c1cccc(Cl)c1)N1CCCCCC1
62 | -1.9 | . | O=C(Nc1ccccc1)c1ccc(C#Cc2ccccc2)o1
63 | 8.9 | -5 | CCCCC1SC(/N=C/c2ccc(Cl)cc2)=NNC1=O (stereo unspecified)
64 | . | -13 | CCCCn1c(N)c(N(CC(C)C)C(=O)COc2ccc(F)cc2)c(=O)[nH]c1=O
65 | . | -5 | Cc1[nH]c(=O)c(C#N)c(C)c1CCC(=O)NC1(C)CCS(=O)(=O)C1 (stereo unspecified)
66 | -3.0 | . | CC(C)=CCC(C#N)(CC=C(C)C)C(=O)O
67 | -0.8 | 2 | O=C(Nc1cccc(O)c1)c1cccc(-n2cnnc2)c1
68 | . | -22 | CC1=C(c2ccccc2)[N+](=O)C(C)(C)N1[O-]
69 | . | -3 | CC(C(=O)N/C(N)=N/c1nc2ccccc2s1)N1C(=O)c2ccccc2C1=O (stereo unspecified)
70 | -2.0 | 1 | Cc1cc(C)c(C)c(S(=O)(=O)N2CCSCC2)c1C
71 | . | 7 | Cc1nc2ccccc2c(=O)n1/N=C/c1ccc2c(c1)OCO2
72 | -0.6 | 7 | CCCOc1ccccc1N
73 | . | -15 | Cc1oc(-c2ccc(C(=O)NCc3ccccn3)cc2)nc1Cn1cccn1
74 | 0.2 | 5 | Cc1nn(CC(O)c2ccccc2)c(C)c1Br (stereo unspecified)
75 | -1.2 | 19 | Cc1c(C(=O)Nc2ccccc2)sc2ncn(CC(=O)N3CCOCC3)c(=O)c12
76 | -1.4 | 4 | O=C(NCc1ccccc1)C1C2CC3OC(=O)C1C3C2 (stereo unspecified)
77 | . | 5 | CC1CCC(=O)C(C(CC(=O)c2ccccc2)c2ccc3c(c2)OCO3)C1 (stereo unspecified)
78 | -2.2 | 13 | CCC(=O)Nc1cc(C(=O)OCC(=O)c2cccs2)ccc1C
79 | . | -16 | c1ccc(-c2nc(-c3ccco3)cs2)nc1
80 | 5.6 | -2 | O=c1[nH]c(O)c(C=NCCCn2ccnc2)c(=O)[nH]1
81 | 0.5&-0.2 | . | CCCC(C(=O)OCCN(CC)CC)(c1ccccc1)c1ccccc1
82 | . | -12 | COc1ccc(-n2c(SCC(=O)N3CCCc4ccccc43)nc3c(c2=O)SCC3)cc1OC
83 | . | 3 | N#Cc1ccc(COC(=O)c2cnc3sccn3c2=O)cc1
84 | -1.5 | 4 | O=C(NC1CCCC1)c1ncoc1-c1ccc2ccccc2c1
85 | -1.1 | . | NC(=O)NCc1cccc(Cl)c1
86 | 0.1 | . | O=C(CSc1nnc(-c2ccc(C(F)(F)F)cn2)o1)Nc1ccccc1
87 | . | 15 | COc1cccc(-c2nnc3n2CC(C)S3)c1 (stereo unspecified)
88 | 1.8 | -15 | O=C(CCC1CCCC1)OCC(=O)N1CCOCC1
89 | . | -10 | O=C(CCn1c(=O)oc2ccccc21)N1CCN(c2ccc(F)cc2)CC1
90 | . | 2 | CC(=O)N1CN(C2CCCC2)Cc2c1sc1c2CCCC1

Of the compounds above, these contain a cyano group:
# | MgrA DNA FP | S aureus helic | mol
26 | . | -7 | Cn1c2c(c(=O)n(C)c1=O)C(c1ccc(Cl)cc1)C(C#N)=C(N)O2 (stereo unspecified)
32 | -2.5 | 14 | Cc1sc2nc(N)c(C#N)c(C)c2c1C
35 | . | -6 | CCN(CC)S(=O)(=O)c1ccc2c(c1)nc(CCC(=O)OCC#N)n2C
65 | . | -5 | Cc1[nH]c(=O)c(C#N)c(C)c1CCC(=O)NC1(C)CCS(=O)(=O)C1 (stereo unspecified)
66 | -3.0 | . | CC(C)=CCC(C#N)(CC=C(C)C)C(=O)O
83 | . | 3 | N#Cc1ccc(COC(=O)c2cnc3sccn3c2=O)cc1

The main list resumes, starting six compounds before the break.
# | MgrA DNA FP | S aureus helic | mol
85 | -1.1 | . | NC(=O)NCc1cccc(Cl)c1
86 | 0.1 | . | O=C(CSc1nnc(-c2ccc(C(F)(F)F)cn2)o1)Nc1ccccc1
87 | . | 15 | COc1cccc(-c2nnc3n2CC(C)S3)c1 (stereo unspecified)
88 | 1.8 | -15 | O=C(CCC1CCCC1)OCC(=O)N1CCOCC1
89 | . | -10 | O=C(CCn1c(=O)oc2ccccc21)N1CCN(c2ccc(F)cc2)CC1
90 | . | 2 | CC(=O)N1CN(C2CCCC2)Cc2c1sc1c2CCCC1
91 | 1.7 | -11 | Cc1cc(C)n(-c2nc3ccccc3nc2NCCc2ccccc2)n1
92 | . | -19 | CCOc1ccc2nc(SCC)[nH]c2c1
93 | . | 11 | COC(=O)c1c(C)oc2ccc(O)cc12
94 | . | 4 | CC(=O)N1N=C(c2ccncc2)OC1c1cn(-c2ccccc2)nc1-c1cccs1 (stereo unspecified)
95 | -4.2 | 7 | Cc1ccc(C(=O)Nc2cccc(C(=O)O)c2)cc1
96 | 4.3 | 11 | COc1cc(C(=O)O)cc(OC)c1OCc1cc(C(=O)O)oc1C
97 | -5.2 | 2 | O=C(NCCCO)Nc1c[nH]c2ccccc2c1=O
98 | . | -37 | CCCCn1c(=O)[nH]c2nc3cc(N=Cc4c(O)n(C)c(=O)n(C)c4=O)ccc3nc2c1=O
99 | . | -6 | CCn1c(=NC(=O)c2ccc(N(C)C)cc2)sc2cc(Cl)ccc21
100 | 0.5 | -9 | CC(C)Nc1nc(NC(C)C)nc(Sc2nn(C)c(=S)s2)n1
101 | 0.5 | 4 | CNc1ccc(C(O)(C(F)(F)F)C(F)(F)F)cc1
102 | . | 7 | COc1ccccc1N(CN1CCCC1=O)C(=O)COc1ccc(Cl)cc1Cl
103 | . | -2 | CCOC(=O)C1CCCN(Cc2cn3c(-c4cccc(Br)c4)nnc3s2)C1 (stereo unspecified)
104 | -3.0 | -2 | O=C(Cn1c(=O)oc2ccccc21)Nc1ccccc1Cl
105 | -2.1 | . | COc1ccc(-c2nc(-c3cccc(C)c3)no2)cc1OC
106 | -3.9 | . | C/C(Cc1ncn(-c2cc(C)on2)n1)=N\O
107 | . | -26 | COc1ccc2[nH]cc(C(=O)O)c(=O)c2c1
108 | 2.6 | . | S=C(NCCNC(=S)Nc1cccc(Cl)c1)Nc1cccc(Cl)c1
109 | . | 4 | O=C(NCc1cccnc1)c1cnn2ccccc12
110 | 3.0 | 6 | Cc1noc(-c2ccccc2OC(=O)c2ccccc2)n1
111 | 3.2 | . | CC1(C)CC(=O)C2=C(C1)OC(N)=C(C#N)C2c1ccccc1OCc1ccc(Cl)cc1 (stereo unspecified)

Some of the entries so far, with one line to a screen:
(95) Cc1ccc(C(=O)Nc2cccc(C(=O)O)c2)cc1
(108) S=C(NCCNC(=S)Nc1cccc(Cl)c1)Nc1cccc(Cl)c1
(106) C/C(Cc1ncn(-c2cc(C)on2)n1)=N\O
(91) Cc1cc(C)n(-c2nc3ccccc3nc2NCCc2ccccc2)n1
(98) CCCCn1c(=O)[nH]c2nc3cc(N=Cc4c(O)n(C)c(=O)n(C)c4=O)ccc3nc2c1=O
screen / no.	95	108	106	91	98
MgrA DNA FP	-4.2	2.6	-3.9	1.7	.
S aureus helic	7	.	.	-11	-37
